# EPAC2 ant val = Validation qHTS for antagonist of cAMP-regulated guanine nucleotide exchange factor 4 (EPAC2) | Rap guanine nucleotide exchange factor 4 (Homo sapiens), Q8WZA2 | EPAC2 Rap1B BODIPY-GDP exchange, fluorescence | Potency, µM (titrated, usually from 112 µM), for the others: top-dose activity, negative = inhibition, usual class: inhibitors | hit rate 1.7% among 16,000 | AID 1645886, 2021; active = well fitted inhibition curve with a large enough effect;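 also: 100% = activation by cAMP agonist control; nearly all actives have a fitted effect of over 40% in size; the record reuses the description of the EPAC1 agonist screen; inactives centre near -10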
#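 Fluorescent exchange read-out: 100 nM EPAC2 with 250 nM RAP1B–BODIPY-GDP and 50 uM GDP; BODIPY-GDP release lowers fluorescence. Read at 480/540 nm every 5 min for 30 min at room temperature; normalized to 6.5 mM cAMP.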
# * = called active by the depositor. Potency is read from the fitted curve at half-maximal effect.
SMILES,EPAC2 ant val
CCC1C(=O)OC[C@H]1Cc1cncn1C (some centres undefined),-11%

# A portion of the library; count on the stated rates, not on these rows.
